# SARS PLpro yeast = blocks SARS-CoV papain-like protease in a yeast assay; S. cerevisiae expressing SARS-CoV PLpro, growth rescue; control for the full effect not named in the record; Potency, µM (titrated, usually from 32.9 µM), inactives show at the top dose activity, positive = growth rescue; hit rate 0.19% among 330,000; active means well fitted rising curve with a large enough effect; inconclusive means small, poorly fitted or top-dose-only effect; inactive means no such curve, though single readings can be large or run the other way; note: 0% is about no effect; nearly all actives have a fitted effect of over 55% in size; growth read by luminescence after 48 h
# NS1 function inh = blocks influenza NS1 protein function; S. cerevisiae slowed by influenza A NS1, growth recovery by OD600; Potency, µM (titrated, usually from 46.1 µM), inactives show at the top dose activity, positive = more growth; hit rate 0.4% among 270,000; AID 2326; active means well fitted rising curve with a large enough effect; inconclusive means small, poorly fitted or top-dose-only effect; inactive means no such curve, though single readings can be large or run the other way; note: nearly all actives have a fitted effect of over 50% in size
#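 Growth recovery, yeast-based: influenza A NS1 expressed in S. cerevisiae causes slow growth, and suppressors are detected by OD600. The parent strain without NS1 is used as positive control.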
# LASV entry inh = blocks Lassa virus binding to or entry into cells. hit rate 1.2% among 300,000. Potency, µM (doses to about 37.9 µM), without a hit: top-dose activity change, negative = inhibition, usual class: inhibitors. Lassa virus pseudotype entry inhibition, cell reporter; control for the full effect not named in the record. AID 540256; active means well fitted inhibition curve with a large enough effect; inconclusive means small, poorly fitted or top-dose-only effect, or effect the other way; inactive means flat fitted curve, though single readings scatter; tested in HEK293 cells; note: % is set by controls: 0 for no effect and ±100 for the full control effect; nearly all actives have a fitted effect of over 50% in size; luciferase read-out
# Marburg entry inh = blocks Marburg virus binding to or entry into cells | Marburg virus pseudotyped entry inhibition, cell reporter; control for the full effect not named in the record; about a third of the inactives were read at about 46 µM | Potency, µM (doses to about 37.8 µM), for the others: top-dose activity change, negative = inhibition, most hits filed as inhibitors | hit rate 1.8% among 300,000 | AID 540276; active = well fitted inhibition curve with a large enough effect; inconclusive = small, poorly fitted or top-dose-only effect, or effect the other way; inactive = flat fitted curve, though single readings scatter; tested in HEK293 cells; about a fifth of its hits are not listed in these tables; note: % is set by controls: 0 for no effect and ±100 for the full control effect; luciferase read-out
# RE007 growth inh = less growth of the S. pombe RE007 Vpr strain; Potency, µM (doses to about 92.2 µM), for the others: top-dose activity change, negative = less growth; hit rate 0.21% among 360,000; S. pombe RE007 Vpr strain, BacTiter-Glo ATP luminescence, 24 h; control for the full effect not named in the record; AID 651644; active = well fitted falling curve with a large enough effect; inconclusive = small, poorly fitted or top-dose-only effect; inactive = no such curve, though single readings can be large or run the other way;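 note: % is set by controls: 0 for no effect and ±100 for the full control effect; nearly all actives have a fitted effect of over 50% in size; the assay follows cell death caused by Vpr and the record does not say whether a fall means rescue or toxicity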
#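 Fission yeast strain RE007, carrying one chromosomally integrated HIV-1 vpr copy, was seeded at OD 0.01 in PMG+AL medium with 23 nL pinned compound. After 24 h at 30 °C and 99% humidity, viability was read by BacTiter-Glo luminescence.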
# Cruzain Triton = inhibitors of Trypanosoma cruzi cruzain with detergent; Potency, µM, inactives show max response, negative = inhibition, actives largely listed as inhibitors; P25779; purified cruzain, Z-FR-AMC fluorescence, 0.01% Triton; hit rate 0.43% among 200,000;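 note: plate controls were neutral wells for no effect and buffer without enzyme for full effect; nearly all actives have a fitted effect of over 40% in size; top concentration of the series not given in the record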
# Target sequence (P25779 123-467 limits assumed): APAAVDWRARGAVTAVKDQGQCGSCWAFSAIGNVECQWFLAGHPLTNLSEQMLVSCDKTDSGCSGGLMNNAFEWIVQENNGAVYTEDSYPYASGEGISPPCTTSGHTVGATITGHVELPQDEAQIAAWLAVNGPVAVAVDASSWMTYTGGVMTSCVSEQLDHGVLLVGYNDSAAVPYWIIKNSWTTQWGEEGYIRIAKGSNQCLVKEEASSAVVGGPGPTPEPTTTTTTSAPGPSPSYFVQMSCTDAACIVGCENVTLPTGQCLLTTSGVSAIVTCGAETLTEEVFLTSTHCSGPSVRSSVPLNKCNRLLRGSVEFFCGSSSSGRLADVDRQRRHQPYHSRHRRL
#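 In this qHTS format, compounds are incubated with 1.5 nM cruzain for 15 min at room temperature before 2 uM Z-FR-AMC is added. Release of AMC is followed at 360/450 nm, and progress is taken as the 60 s fluorescence difference.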
# Cruzain inh noDet = cruzain (T. cruzi) inhibition without detergent. purified cruzain, Z-FR-AMC fluorescence, no detergent. Potency, µM, for the others: max response, negative = inhibition, usual class: inhibitors. hit rate 2.3% among 200,000;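 note: plate controls were enzyme without inhibitor for no effect and buffer without enzyme for full effect; nearly all actives have a fitted effect of over 40% in size; top concentration of the series not given in the record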
#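 Purified cruzain at 1.5 nM, pre-incubated 15 min with compound at room temperature in 100 mM sodium acetate pH 5.5, 5 mM DTT, 0.00005% Triton X-100. Reaction started with 2 uM Z-FR-AMC; AMC fluorescence increase over 60 s gives rate.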
# StopGo reporter = lowers the luciferase signal of an FMDV 2A StopGo reporter; human cells with a luciferase reporter of 2A StopGo recoding; control for the full effect not named in the record; Potency, µM (titrated, usually from 57.9 µM), without a hit: at the highest dose signal change, negative = less light; hit rate 1.2% among 410,000; AID 1159524; active = well fitted falling curve with a large enough effect; inconclusive = small, poorly fitted or top-dose-only effect; inactive = no such curve, though single readings can be large or run the other way; tested in HEK293T cells; note: % is set by controls: 0 for no effect and ±100 for the full control effect; nearly all actives have a fitted effect of over 45% in size; luciferase light after 4 h
# An asterisk follows results filed as active; ? = inconclusive; · = not tested or not shown; [ ] = dose if it differs, or a comment. Unless noted, calls come from the whole dose curve; as a rule, active = well fitted curve in the direction sought with a large enough effect; inconclusive = small, poorly fitted or top-dose-only effect, or another doubt; inactive = no such curve, though single readings can be large; an effect the other way counts as inactive or inconclusive. Potency is the fitted concentration of half-maximal effect.
SMILES,SARS PLpro yeast,NS1 function inh,LASV entry inh,Marburg entry inh,RE007 growth inh,Cruzain Triton,Cruzain inh noDet,StopGo reporter
O=C1CC(Sc2nnc(-c3ccccc3)o2)C(=O)N1c1ccccc1 (stereo not given),-15%,-83%,11%,?,16µM*,1.3%,-1%,?
CC1CCCN(CC(=O)Nc2cccc([N+](=O)[O-])c2)C1 (stereo not given),14%,-12%,18%,20%,3%,2.4%,-5%,-11%
Cc1nn(C)c(C(=O)N/N=C/c2cccc3ccccc23)c1Cl,?,9%,?,7%,10%,-3.8%,-8%,29%
C(=C\c1ccccc1)/CSc1nnc(-c2cccnc2)o1,2%,-71%,-29%,0%,-14%,5.1%,-1%,·
O=C(CSc1ccc2c(c1)OCCO2)Nc1cccnc1,-3%,3%,-3%[46.1 µM],-5%[46.1 µM],-9%,·,·,0%
CCOCCCN1CC(C(=O)NCCc2ccccc2)CC1=O (stereo not given),0%,5%,-3%,12%,0%,7.0%,-1%,·
CNC(=O)CSc1nc2nc(C)cc(C)n2n1,4%,0%,-1%,-4%,2%,-1.2%,2%,7%
COc1ccc(NC(=O)CC(C)(C)C)c([N+](=O)[O-])c1,16%,7%,9%,21%,-6%,-1.0%,4%,13%
O=C1NN(c2ccccc2)C(=O)C2C1C1C=CC2C12CC2 (stereo not given),-2%,9%,13%,?,2%,-0.6%,-2%,-16%
CCC(C)NC(=O)Nc1ccc(C)cc1C (stereo not given),-1%,3%,·,·,-1%,·,·,11%
O=C(O)CSc1nnc(-c2ccncc2)n1C1CCCCC1,3%,-4%,8%,12%,15%,2.2%,2%,-9%
CCOC(=O)C1CCN(Cc2cn[nH]c2-c2ccccc2)CC1,-5%,-1%,?,-6%,-8%,-1.7%,0%,-5%
C=CCn1cnc2c(nnn2-c2ccc(OC)c(OC)c2)c1=O,-2%,1%,5%,12%,12%,·,·,6%
Cc1ccc(OCC(=O)OCc2nc3scc(-c4ccccc4)c3c(=O)[nH]2)cc1C,-1%,·,-4%,0%,-16%,·,·,-13%
COC(=O)c1ccc(CNC(=O)c2cc3ccccc3oc2=O)cc1,5%,-3%,-10%[46.1 µM],1%[46.1 µM],3%,·,·,-6%
CC(C)C(=O)N1CCC2(CC1)Oc1ccc(Cl)cc1C(=O)C21CC(c2cccnc2)=NO1 (stereo not given),-3%,-7%,·,·,0%,·,·,-19%
COc1ccc2[nH]c3c(N4CCC(O)(c5cccc(C(F)(F)F)c5)CC4)ncnc3c2c1,-5%,10%,?,·,6%,-7.1%,-18%,28µM*
COc1cccc(-c2nnc3sc(-c4ccc(C)cc4)nn23)c1,5%,15%,·,0%,·,-7.0%,?,·
CCOc1ccc(N(CC)S(=O)(=O)N2CCCC(C(=O)Nc3cc(Cl)ccc3OC)C2)cc1 (stereo not given),·,·,3%[46.1 µM],·,·,-1.2%,-16%,-6%
CN1CCN(Cc2nc3ccccc3c(=O)n2Cc2nc(-c3ccccc3F)cs2)CC1,-4%,3%,-20%,?,·,-10.0%,-14%,6%
CCCCCC(=O)N/N=C/c1ccc(N(C)C)cc1,-2%,-31%,-28%,?,-8%,-15%,-14%,25%
CCOC(=O)C1CCCN(C(=O)C2CCN(S(=O)(=O)c3cnc[nH]3)CC2)C1 (stereo not given),6%,4%,22%,?,-17%,3.4%,2%,17%
CCCCC(=O)NC(=S)Nc1cccc(C(=O)O)c1,-1%,0%,15%,7%,-10%,·,·,17%
O=C(O)CC/C(=C\c1ccc(Cl)c([N+](=O)[O-])c1)c1nc2ccccc2s1,-38%,-40%,1%,?,?,-14%,?,-7%
CCOC(=O)c1c(CSC(=N)N)n(C)c2cc(Br)c(OC(C)=O)cc12,-4%,17%,?,?,3%,·,·,?

# Next structures follow:
SMILES,SARS PLpro yeast,NS1 function inh,LASV entry inh,Marburg entry inh,RE007 growth inh,Cruzain Triton,Cruzain inh noDet,StopGo reporter
CC(=O)N1c2ccc(S(=O)(=O)N(C)CC(=O)NC(C)c3ccccc3)cc2CC1C (stereo not given),1%,3%,-7%[46.1 µM],-2%[46.1 µM],-14%,·,·,-8%
CCOc1ccc(NC(=O)c2c(Nc3ccccc3C)sc(C(=O)c3ccc(Cl)cc3)c2N)cc1,·,·,-62%[46.1 µM],·,·,-6.7%,-27%,?
S=C1NCCOCCOCCOCCOCCN1,-5%,8%,-1%,-1%,-8%,4.8%,-6%,-8%
CCC(=O)Nc1cccc(C2=NOC3(C2)C[C@H](C(N)=O)N(C(=O)Cc2ccc([N+](=O)[O-])cc2)C3)c1 (stereo not given in full),0%,2%,·,·,7%,·,·,2%
CCC(C)NC(=O)CSc1nc2cc3c(cc2c(=O)n1Cc1ccco1)OCO3 (stereo not given),-2%,·,7%,21%[46.1 µM],13%,·,·,8%
CCOC(=O)c1c(NC(=S)Nc2ccc(OC)cc2)sc2c1CCCCC2,11%,3%,-11%,?,1%,-6.2%,-24%,-6%
CCOCCc1nn2c(=O)cc(COC(=O)c3ccccc3NC(=O)c3cccs3)nc2s1,·,·,10%[46.1 µM],·,·,0.7%,-1%,-10%
CNc1ccc2oc(C[C@H]3O[C@]4(CC[C@H]3C)O[C@H]([C@H](C)C(=O)c3ccc[nH]3)[C@H](C)C[C@H]4C)nc2c1C(=O)O,·,·,·,0.71µM*,·,-12%,?,-12%
COc1cc(C(=O)NC2CC(C)(C)NC(C)(C)C2)cc(OC)c1OC,1%,2%,20%[46.1 µM],-5%[46.1 µM],-14%,·,·,-1%
COc1ccc(NC(=O)CSc2nnc(-c3cccnc3)o2)c(OC)c1,-6%,·,11%,3%,6%,·,·,30%
O=C(NN1C(=O)/C(=C\c2cccnc2)SC1=S)c1ccco1,-5%,·,8%,-10%[46.1 µM],16%,·,·,-17%
Cc1ccc(OCCCOc2cccc3cccnc23)cc1C,-19%,-77%,3%,-4%,?,-13%,7%,24%
COc1cc(C)c(Cl)cc1S(=O)(=O)n1ccnc1C,10%,-4%,1%,13%,1%,6.2%,6%,·
CC(C)c1ccc(C2c3c(oc4ccc(Cl)cc4c3=O)C(=O)N2CCCN2CCOCC2)cc1 (stereo not given),·,·,?,?,·,-10%,?,-6%
Cc1nnc(-c2cnn(C)c2N)n1CCCN(C)C,6%,2%,?,-5%[46.1 µM],-27%,·,·,-11%
Cc1nc(-c2ccc(NC(=O)Cc3ccccc3)cc2)cs1,0%,-2%,?,?,10%,·,·,78%[activator]
CCc1ccc(NC(=O)CCc2c(C)nn(-c3ccc(N4CCCC4)nn3)c2C)cc1,·,·,-5%[46.1 µM],·,·,-5.8%,?,15%
O=C(Nc1ccc2ccccc2c1)c1ccc(Br)o1,-11%,-103%,?,?,?,·,·,10%
O=C(/C(=C(\[O-])c1ccccc1)[n+]1ccc2ccccc2c1)c1ccc([N+](=O)[O-])cc1,9%,?,21%,12%,-7%,-6.6%,-1%,11%
CCOC(=O)c1c(C)[nH]c(C2=NNC(=Nc3ccc(OCC)cc3)SC2)c1C,-3%,8%,?,?,-10%,-5.7%,-30%,6%
CCc1ccc(-c2cc(C)no2)cc1S(=O)(=O)N1CCOc2ccccc21,0%,19%,?,?,-16%,·,·,?
CCCCCOc1ccc(CSc2n[nH]c(C)n2)cc1,1%,1%,?,-11%[46.1 µM],?,·,·,-20%
O=C(NC(=S)N(Cc1ccccc1)c1ccccn1)C1CC1,19%,5%,1%,17%,-5%,-1.5%,-10%,0%
COc1ccc2cc(CN(CCCN3CCOCC3)Cc3nnnn3C3CCCCC3)c(=O)[nH]c2c1,-2%,-5%,0%,9%,17%,1.2%,-6%,-6%
COCc1c(C(=O)OCc2c(C)noc2C)oc2ccccc12,2%,·,-13%,-1%[46.1 µM],-7%,·,·,-23%

# Complete entries from above. Values in the order: SARS PLpro yeast | NS1 function inh | LASV entry inh | Marburg entry inh | RE007 growth inh | Cruzain Triton | Cruzain inh noDet | StopGo reporter
# Record of O=C(NC(=S)N(Cc1ccccc1)c1ccccn1)C1CC1 = 19% | 5% | 1% | 17% | -5% | -1.5% | -10% | 0%
# Record of O=C(CSc1ccc2c(c1)OCCO2)Nc1cccnc1 = -3% | 3% | -3%[46.1 µM] | -5%[46.1 µM] | -9% | · | · | 0%

# New compounds follow.
SMILES,SARS PLpro yeast,NS1 function inh,LASV entry inh,Marburg entry inh,RE007 growth inh,Cruzain Triton,Cruzain inh noDet,StopGo reporter
CCc1nnc(NC(=O)CSc2nc(-c3ccc(F)cc3)cc(-c3ccccc3)c2C#N)s1,11%,21%,·,-1%,2%,-0.3%,7.9µM*,-14%
Cc1cc(C)c(CSc2ncc(-c3ccc([N+](=O)[O-])cc3)[nH]2)c(C)c1,-39%,-93%,0%,?,0%,-4.3%,?,0%
O=S(=O)(NCC(c1cccnc1)N1CCN(c2ccccc2F)CC1)c1cccs1 (stereo not given),-3%,-15%,·,2%,-8%,1.2%,-1%,-3%
Cc1ccccc1Nc1nc(=O)c2cc([N+](=O)[O-])ccc2s1,3%,-2%,-29%,-2%,2%,-0.8%,-18%,-24%
COc1ccc(-n2ncc(C(=O)N3CCN(c4ccccn4)CC3)c2C2CCN(C(=O)OC(C)(C)C)CC2)cc1,·,·,·,·,·,-0.6%,-6%,-9%
CCN(CC(=O)Nc1ccc2c(c1)OCCO2)C(=O)CSCC(=O)Nc1ccc(C)cc1,·,·,3%,12%,5%,·,·,6%
COc1ccc(OC)c(Nc2nc3ccc(C)cc3n3cnnc23)c1,1%,-2%,·,·,5%,·,·,?
NC(=O)C1CCN(c2ncnc3c2cnn3-c2ccccc2)CC1,·,·,16%[46.1 µM],·,·,-0.2%,-2%,65%[activator]
CCOC(=O)Nc1cc(Br)c2c(c1)OCCO2,-10%,-9%,-4%,1%,-12%,5.6%,-3%,·
COc1ccc(-c2cc(C(=O)O)nc3ccc4ccccc4c23)cc1OC,-3%,·,0%,-27%,-1%,·,·,9%
Cc1ccccc1OCC1CN(CN2CCOCC2)C(=O)O1 (stereo not given),-4%,-2%,2%,-7%,14%,4.4%,5%,-2%
COC(=O)c1cn(C)c2ccc(S(=O)(=O)N3CCCCC3)cc2c1=O,0%,-5%,7%,-3%,19%,0.2%,-7%,-21%

# Bioassay records from PubChem BioAssay.
